# Source: PubChem
# PV pol inh: poliovirus RNA polymerase inhibition; P03300; poliovirus polymerase elongation, fluorescence polarization; hits give low values; % elongation, % (compound at 16.7 µg/mL); 150,000 tested, 0.66% active; in the data active = % elongation below about 90%; also: some results filed as inactive read as strong as hits
# MbtI inh: blocks the Mycobacterium tuberculosis siderophore enzyme MbtI; 100,000 tested, 0.89% active; purified MbtI enzyme, fluorescence intensity read-out; inhibition, %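 (about 17 µg/mL by stock and volumes)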;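 active = above 50% in both replicates, above 80% if mildly self-fluorescent; inactive = the rest, strongly fluorescent compounds included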;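 also: 0% = mean of negative and 100% = mean of positive controls; one replicate is shown; some compounds called inactive have numbers as strong as hits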
# Target sequence (P9WFX0 whole entry, looked up): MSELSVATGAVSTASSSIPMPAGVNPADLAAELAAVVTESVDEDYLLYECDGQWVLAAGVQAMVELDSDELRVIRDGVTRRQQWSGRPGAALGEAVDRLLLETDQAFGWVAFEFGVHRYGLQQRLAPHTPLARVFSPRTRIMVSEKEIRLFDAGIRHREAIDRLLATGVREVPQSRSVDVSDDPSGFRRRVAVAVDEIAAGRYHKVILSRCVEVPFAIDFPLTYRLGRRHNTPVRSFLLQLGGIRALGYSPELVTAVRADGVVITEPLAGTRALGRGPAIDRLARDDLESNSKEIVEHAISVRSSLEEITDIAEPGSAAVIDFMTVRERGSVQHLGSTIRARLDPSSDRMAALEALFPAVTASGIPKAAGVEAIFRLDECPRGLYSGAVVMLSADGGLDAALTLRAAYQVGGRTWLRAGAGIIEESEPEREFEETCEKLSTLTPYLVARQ
# MenB inh: Mtb MenB enzyme inhibition. inhibition, %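 (about 12 µg/mL by stock and volumes)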. P9WNP5. AID 540299. MenB enzyme assay, absorbance read-out; some hits fall short of the stated cut. 100,000 tested, 0.43% active;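 active = mean of two replicates above 30%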;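 also: 0% = no compound and 100% = wells with inactive enzyme; the first replicate is given; strong numbers were not always called active; inactives centre near -10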
# Target sequence (P9WNP5 whole entry, looked up): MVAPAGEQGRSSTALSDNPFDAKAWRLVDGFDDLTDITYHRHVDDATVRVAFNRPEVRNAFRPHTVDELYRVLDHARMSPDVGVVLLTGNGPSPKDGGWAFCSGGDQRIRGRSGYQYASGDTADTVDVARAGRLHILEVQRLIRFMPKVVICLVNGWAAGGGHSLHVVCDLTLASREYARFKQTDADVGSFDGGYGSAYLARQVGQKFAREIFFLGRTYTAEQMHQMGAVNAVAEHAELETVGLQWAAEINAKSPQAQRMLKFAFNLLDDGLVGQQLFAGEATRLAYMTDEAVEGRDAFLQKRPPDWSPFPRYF
# PV pol inh intensity: recorded beside PV pol inh, whose call it bears; % elongation; measured here: total intensity read-out; formula for this scale not given here;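 total fluorescence in place of polarization; lower means less elongation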
# The depositor's hits bear a star; · = not tested or not shown; & = joins results of further samples.
SMILES,PV pol inh,PV pol inh intensity,MbtI inh,MenB inh
COc1ccc(C(=O)CSc2ncn(-c3ccccc3)n2)cc1OC,102,102,4,-22
O=C(OCc1ccccc1)c1ccc2c(c1)OCO2,103,104,2,·
CCC(C)NC(=O)CSc1nnc(-c2ccc(C)c(C)c2)o1 (stereo not drawn),105,100,-10,-20
CCOC(=O)C1=C(C(C)c2ccccc2)NC(=O)NC1C (stereo not drawn),104,111,-13,-10
CC1CCN(C(=O)C(C)Sc2nnc(Nc3ccccc3F)s2)CC1 (stereo not drawn),105,105,6,-7
O=C(NCCc1ccccc1)c1cnc2ccccn2c1=O,107,105,·,-12
O=C(Nc1ccc2c(c1)OCCO2)Oc1ccccc1,102,105,-11,-7
O=C(Nc1ccc(F)cc1)n1ncc2cc(Cl)ccc21,102,97,6,19
Cc1occc1-c1nnc(SCC(=O)Nc2ccc3c(c2)OCO3)n1CC(C)C,103,103,-3,-33
CCc1nnc(NC(=O)C(C)c2c(C)n[nH]c2C)s1 (stereo not drawn),99,102,-20,7
O=C(NCCCN1CCOCC1)Nc1ccc(Cl)cc1,101,100,-8,-20
CCOc1cc(C(=O)OCc2nnc(-c3ccccc3)o2)ccc1OCC(=O)N1CCCCC1,106,111,-6,-5
NC(=O)Cn1c(COC(=O)Cc2coc3ccc4ccccc4c23)nc2ccccc2c1=O,113,133,12,-9
CCN(C(=S)NC(=O)c1ccco1)c1cccc2ccccc12,102,108,-4,-13
O=C(Oc1cc(=O)oc2c1c(=O)n1c3c(cccc23)CCC1)c1ccccc1,102,96,22,-17
N#CC1=C(SCc2ccccc2)NC2=C(C(=O)CCC2)C1c1ccc(Cl)cc1 (stereo not drawn),104,108,-8,·
O=C(c1ccc(S(=O)(=O)NCc2ccco2)cc1)N1CCc2ccccc21,106,104,-15,-9
O=C(O)CN1C(=O)/C(=C\c2ccccc2)SC1=S,105,102,3,-4
O=C(O)C1CCN(S(=O)(=O)c2ccc3ccccc3c2)CC1,102,93,-7,-16
CCOC(=O)C1=C(C)NC(C)=C(C(=O)OCC)C1C(=O)OCc1cc(=O)n2cc(C)ccc2n1,101,102,-9,1
O=C(/C=C/C=C/c1ccccc1)CC1(O)C(=O)Nc2ccc(Br)cc21 (stereo not drawn),101,103,6,2
CCCNC(=O)NS(=O)(=O)c1ccc(Cl)cc1,101&100,104&100,-6&-11,5&-7
NC(=O)COC(=O)c1ccc(Cl)c(N)c1,104,105,-14,·
CCOC(=O)c1c(SC)n(-c2ccccc2)c(=S)n(-c2ccccc2)c1=O,104,100,-1,-6
O=C1NCCN1CCNS(=O)(=O)c1ccc2c(c1)CCO2,101,100,-8,5

# In a second layout: four of the compounds above.
molecule: CCCNC(=O)NS(=O)(=O)c1ccc(Cl)cc1
  PV pol inh = 101&100
  PV pol inh intensity = 104&100
  MbtI inh = -6&-11
  MenB inh = 5&-7

molecule: NC(=O)COC(=O)c1ccc(Cl)c(N)c1
  PV pol inh = 104
  PV pol inh intensity = 105
  MbtI inh = -14
  MenB inh = ·

molecule: CCOC(=O)c1c(SC)n(-c2ccccc2)c(=S)n(-c2ccccc2)c1=O
  PV pol inh = 104
  PV pol inh intensity = 100
  MbtI inh = -1
  MenB inh = -6

molecule: O=C1NCCN1CCNS(=O)(=O)c1ccc2c(c1)CCO2
  PV pol inh = 101
  PV pol inh intensity = 100
  MbtI inh = -8
  MenB inh = 5

# Part of the list above, with each value named.
O=C(Nc1ccc(F)cc1)n1ncc2cc(Cl)ccc21
  PV pol inh: 102; PV pol inh intensity: 97; MbtI inh: 6; MenB inh: 19
Cc1occc1-c1nnc(SCC(=O)Nc2ccc3c(c2)OCO3)n1CC(C)C
  PV pol inh: 103; PV pol inh intensity: 103; MbtI inh: -3; MenB inh: -33

# Next section.
SMILES,PV pol inh,PV pol inh intensity,MbtI inh,MenB inh
Cc1ccc(-n2c(SCc3cc(=O)n4ccccc4n3)nc3n[nH]c(C)c3c2=N)cc1Cl,100,102,-20,-24
O=C1CC(C(=O)N2CCN(c3ccccc3)CC2)CN1Cc1ccco1 (stereo not drawn),99,108,-19,-21
CCOC(=O)N1CCC(NC(=O)c2cc(S(=O)(=O)N(CC)CC)ccc2F)CC1,103,104,-5,-3
Cc1cc(OC(=O)c2ccc(Br)cc2)no1,101,94,-7,·
O=C1/C(=C/c2ccc(O)cc2)SC(=S)N1CC1CCCO1 (stereo not drawn),103,178,4,-316
COc1ccc(Cn2nc(C)c(N)c2C)cc1OC,102,102,6,-27
O=S(=O)(c1ccc(-c2ccno2)s1)N1CCN(c2ccncc2)CC1,101,102,3,17
O=C(NCC(=O)N1CCN(S(=O)(=O)/C=C/c2ccccc2)CC1)c1ccc(Br)o1,104,111,-1,-8
CCOC(=O)NN=C1CN(S(=O)(=O)c2ccc(C)cc2)C1,101,104,-8,-12
Cc1cc(F)ccc1NS(=O)(=O)c1cc(Br)cnc1N,104,105,-2,-5
CC(C)(C)OC(=O)N1CCCN(C(=O)c2cccnc2Oc2ccc(Cl)cc2)CC1,114,118,-7,4
CCN(C(=O)C(C)Sc1ccc(S(=O)(=O)N2CCOCC2)cn1)c1ccccc1 (stereo not drawn),102,99,11,-7
CNC(=O)/C(C#N)=C1\SC(CCO)C(=O)N1c1ccccc1 (stereo not drawn),·,·,27,5
Cn1c2ccccc2c2cnn(CC(=O)O)c(=O)c21,101,101,104,5
NCCc1ccccc1F,102,109,-19,-11
O=C(Nc1ccccc1)c1cnc[nH]1,101&102,99&102,2&-3,-20&0
Cc1n[nH]c(=O)c2ccccc12,100&104,105&106,-14&6,4&-17
S=C(c1cccc(Oc2ccccc2)c1)N1CCOCC1,101,103,34,-21
NNc1nnc(-c2ccccc2)c(-c2ccccc2)n1,100,101,73*,-41
CC(=O)NC(N1CCCC1=O)(C(F)(F)F)C(F)(F)F,106,108,·,3
O=C(Cn1c(C(F)(F)F)nc2ccccc21)NCCN1CCOCC1,100,101,-7,-6
CCOC(=O)Nc1ccc(S(N)(=O)=O)cc1,98,99,9,-18
O=C(Nc1ccc(F)cc1)N1CCN(C(=O)C2COc3ccccc3O2)CC1 (stereo not drawn),102,105,4,15
COc1cc(C#N)ccc1OC(=O)CC1CC2CCC1C2 (stereo not drawn),105,102,2,7
c1ccc(C2=NNC(=NC3CC3)SC2)cc1,100,104,6,-15

# Remaining list, next part.
SMILES,PV pol inh,PV pol inh intensity,MbtI inh,MenB inh
O=C(Nc1ccc2c(c1)OCO2)c1ccncc1,101,99,-6,-24
CCc1ccc(CN2CCN(CC)CC2)cc1,102,103,1,35*
O=C(CC1(C(F)(F)F)OCCO1)Nc1ccc(S(=O)(=O)Nc2ncccn2)cc1,100,96,-5,5
Cc1nn(C2CCS(=O)(=O)C2)c(C)c1CN(C)c1ncnc2sccc12 (stereo not drawn),118,117,-7,-19
O=C1CC(c2ccccc2Cl)Sc2ccccc2N1 (stereo not drawn),99,101,-1,-3
O=C1CCCC(O)=C1C=Nc1cccc(C(F)(F)F)c1,104,101,11,-9
NC(=O)COC(=O)c1ccc2ccccc2n1,101,124,21,8
Clc1ccc2nc(Cl)cc(-c3ccccc3)c2c1,104,103,2,-3
O=C(COc1ccc2ccccc2c1Br)NCc1ccccc1,107,111,·,-27
C/C(=N\c1nc2ccccc2n1C)c1cc(Cl)ccc1O,72,168,-10,-47
COC(=O)C1C(=O)c2c(n[nH]c2C)CC1(C)C (stereo not drawn),103,103,·,-29
Cc1nn(-c2ccc(F)cc2)c(C)c1/C=C/C(=O)OCC(=O)Nc1sccc1C#N,122,133,-2,-22
CC(=O)S[C@@H]1CC2=CC(=O)CC[C@]2(C)[C@H]2CC[C@@]3(C)[C@@H](CC[C@@]34CCC(=O)O4)[C@H]12,96,102,7,3
CC(C)OC(=O)c1cc2c(ccn2-c2ccc(F)cc2)n1CC(=O)Nc1ccc2c(c1)OCO2,101,101,78,1
O=S(=O)(c1cc(Cl)ccc1Cl)N1CCNCC1,102,104,-2,·
CCOC(=O)C1=C(SCC(=O)Nc2ccccc2)NC(=O)C(C#N)C12CCCCC2 (stereo not drawn),107,111,·,-4
COC(=O)c1c(NC(C)=O)c2c(C)c(C)sc2n1Cc1nc(-c2cccs2)oc1C,100,103,0,-3
O=S1(=O)CC(O)C(S(=O)(=O)c2ccc(Cl)cc2)C1 (stereo not drawn),102,107,-4,-14
c1cc2c(cc1CN1CCNCC1)OCO2,102,101,3,3
Cc1ccc(CNC2=CC(=O)CC(C)(C)C2)cc1,102,109,11,-5
O=C(CCSCc1cnn(-c2ccccc2)c1-n1cccc1)NCC1COCCO1 (stereo not drawn),101,102,-5,13
O=C1NCC(=Nc2ccccc2)C(=O)N1,104,109,11,-14
O=C1OC(=Nc2ccccc2)c2ccccc21,99,97,-4,·
O=C(CSCCc1ccccn1)Nc1cccnc1,101,103,-2,0
Cc1nnsc1C(=O)N(Cc1ccc(Cl)cc1)Cc1ccco1,104,103,3,0

# Continued.
SMILES,PV pol inh,PV pol inh intensity,MbtI inh,MenB inh
Cc1cc(C)cc(NC(=O)Cc2cccs2)c1,106,96,·,-5
CCOC(=O)Cc1csc(NC(=O)C2C3C=CC(C3)C2C(=O)O)n1 (stereo not drawn),102,102,2,-21
O=C(NC1CCCCC1)c1cccc(Cn2cc(Cl)cn2)c1,100,104,-1,-19
CNC(=S)Nc1ccc(S(N)(=O)=O)cc1,103,103,-2,-9
Cc1[nH]nc(-c2cccs2)c1C(=O)NN,105,108,-3,5
O=C(COCc1cc(-c2ccc(F)cc2)on1)N1CCCC1,101,100,7,-22
C=CCn1c(=O)c2ccccc2n2c(SCC(=O)NC3CCS(=O)(=O)C3)nnc12 (stereo not drawn),104,106,1,-19
Cc1ccc(NC(=O)c2cc3cc4c5c(c3oc2=N)CCCN5CCC4)cc1,81,191,-5,-6
CNC(=S)N1N=C(c2ccccc2)CC1c1cc2ccc(C)cc2nc1Cl (stereo not drawn),105,97,4,10
NC(=O)COc1cccc2cccnc12,104,106,8,-11
O=C(N=Nc1c(O)[nH]c2ccccc12)c1cccc(S(=O)(=O)N2CCCCC2)c1,101,102,-27,-11
O=C(OCC(=O)C12CC3CC(CC(C3)C1)C2)c1cccs1,100,93,14,-20
O=C(c1cccs1)c1cnc2ncccn12,104,103,7,-21
CSC(NCc1ccc(Cl)cc1Cl)=C(C#N)C#N,104,100,10,-6
Cc1cc(C(=O)CSc2nc(N)c(C#N)cc2C#N)c(C)n1-c1ccc2c(c1)OCO2,109,123,-10,7
CCCC(=O)C1C(=O)C=C(C)OC1=O (stereo not drawn),99,100,14,14
O=C(Nc1c(-c2cccs2)nc2ccccn12)C(c1ccccc1)c1ccccc1,103,103,62,-23
Cn1cnc2onc(C(=O)Nc3ccc(F)cc3)c2c1=O,103,102,-4,-18
Cc1ccc(NC(=S)NCC2CCN(C(C)c3ccccc3)C2)cc1 (stereo not drawn),103,107,-3,-6
CC(C)N(C(=O)Cc1cccs1)C(C)C,101,99,·,-16
CCOc1ccc(S(=O)(=O)N(CC(=O)N2CCCc3ccccc32)Cc2ccco2)cc1,102,100,10,-30
CC1CC(C)CN(C(=O)C(Cc2ccccc2)NS(=O)(=O)c2cccc3nsnc23)C1 (stereo not drawn),102,99,6,-3
O=C1O[C@@H]2C[C@H]3C[C@@H]2[C@@H]1[C@H]3C(=O)Nc1ccc(C(=O)N2CCCCC2)cc1,101,102,-3,17
C=CCN1C(=O)S/C(=C/c2ccc(OC)c(OCC)c2)C1=O,101,100,-5,-36
Cc1ccc(NC(=O)CNC2CCCCC2)cc1Cl,101,103,4,-5

# Whole records, looked up by structure.
# Cc1ccc(NC(=S)NCC2CCN(C(C)c3ccccc3)C2)cc1 (stereo not drawn) is listed as PV pol inh: 103; PV pol inh intensity: 107; MbtI inh: -3; MenB inh: -6
# O=C(COCc1cc(-c2ccc(F)cc2)on1)N1CCCC1 is listed as PV pol inh: 101; PV pol inh intensity: 100; MbtI inh: 7; MenB inh: -22
# Cc1ccc(NC(=O)CNC2CCCCC2)cc1Cl is listed as PV pol inh: 101; PV pol inh intensity: 103; MbtI inh: 4; MenB inh: -5

# Next section:
SMILES,PV pol inh,PV pol inh intensity,MbtI inh,MenB inh
O=C(NC1CCCC1)c1nc(-c2ccc(Cl)cc2)n2c1CCCCC2,104,100,-3,-31
O=C(CSc1nnc(NCc2ccccc2)s1)N1CCOCC1,103,100,7,-17
Nn1c(=O)[nH]c2sc3c(c2c1=O)CCCC3,100,101,14,-19
O=C(COC(=O)c1ccc(O)cc1)Nc1ccc(N2CCCCC2)cc1,104,107,-5,-22
O=C(OC(C(=O)Nc1cc(C(F)(F)F)ccc1Cl)c1ccccc1)c1cccnc1 (stereo not drawn),103,106,-9,·
Cc1ccc(C)n1-c1ccc(C(=O)NC2CCC(O)CC2)cc1 (stereo not drawn),104,101,-26,-35
CC1CCCN(CCC(=O)c2ccc(Br)cc2)C1 (stereo not drawn),98,104,29,17
CN1C(=O)/C(=N\OC(=O)c2cccc(F)c2)c2ccccc21,101,101,-4,-13
O=C(CSc1ccccc1C(=O)N1CCc2ccccc21)NCc1ccco1,108,111,11,-15
COC(OC)C1(C)NC(=O)c2ccccc2N1 (stereo not drawn),102,102,·,-18
Cc1ccc(C(=O)Nc2cccc(-c3nc4ccccc4o3)c2)cc1,105,95,11,22
CC(/C=C/c1ccc(N(C)C)cc1)=N\N=C(/N)SC1CC(=O)N(c2ccccc2)C1=O (stereo not drawn),104,121,-17,-123
CCOc1ccc(OCC)c(Nc2nc3ccc(C)cc3n3nnnc23)c1,106,103,33,-25
COc1cc2ncnc(NNC(=O)c3ccco3)c2cc1OC,102,98,-2,-16
c1nc(NCCc2ccc3c(c2)OCCO3)c2ccsc2n1,134,148,1,-8
Cc1ncoc1C(=O)Nc1ccccc1C(F)(F)F,102,109,-1,-14

# An unsorted share of the library; 1.8% or so of the library scored in one or more.
